KinaseGlo FLuc: counter-screen: inhibitors of Kinase-Glo firefly luciferase | Kinase-Glo luciferase, ATP luminescence, 8 min | Potency, µM (top dose mostly 38.3 µM), inactives show at the highest dose activity change, negative = inhibition, actives largely listed as inhibitors | 0.28% of 200,000 active; note: potency is the fitted concentration of half-maximal effect; % is set by controls: 0 for no effect and ±100 for the full control effect; nearly all actives have a fitted effect of over 60% in size
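Compounds were added to a substrate mix at pH 7.2 (50 mM imidazole, 10 uM ATP, within the enzyme's linear range), followed by Kinase-Glo detection reagent; luminescence was measured after 8 minutes at ambient temperature.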
CBFb-RUNX1 inh: CBF-beta/RUNX1 interaction disruption | Q01196+Q13951 | AlphaScreen CBFb-His/RUNX1-biotin binding, biochemical | Potency, µM (titrated, usually from 59.8 µM), inactives show top-dose activity, negative = inhibition, hits mostly inhibitors | 230,000 tested, under 10 active; note: % of control where 0% means no effect
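Interaction loss through any mechanism counts as activity. Pre-formed complex of His-CBF-beta and biotin-RUNX1 (30 nM apiece) is incubated with compound 15 min, then with 50 ng nickel and 50 ng streptavidin beads for 90 min before AlphaScreen detection.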
HTT ATP protect: Huntington cell model cytoprotection by ATP luminescence; 0.14% of 230,000 active; Potency, µM (series often up to 56.4 µM), inactives show cytoprotection (ATP increase), usual class: activators; PC12 HTT-Q103 induced, cytoprotection, ATP luminescence, 40 h;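 note: potency is the fitted concentration of half-maximal effect; % of control where 0% means no effect; nearly all actives have a fitted effect of over 45% in size; toxic huntingtin expression switched on by the ecdysone agonist tebufenozide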
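PC12 cells with ecdysone-inducible HTT exon 1 Q103-GFP, induced with 100 nM tebufenozide and co-treated with library compounds in a dose series (1536-well, 1500 cells/well). Cytoprotection read as ATP content by ATPlite luminescence.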
HTT aggregate: reduces HttQ103-GFP aggregates in PC12 cells; AID 1688; PC12 HttQ103-GFP aggregates, Acumen cytometry, 40 h; 1.1% of 220,000 active; Potency, µM (series often up to 46.1 µM), without a hit: at the top dose activity change, negative = inhibition, actives largely listed as inhibitors; note: potency is the fitted concentration of half-maximal effect; % is set by controls: 0 for no effect and ±100 for the full control effect; nearly all actives have a fitted effect of over 60% in size
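Inducible Q103 Huntingtin exon 1–GFP PC12 line, 1500 cells/well in phenol red free DMEM with 5% equine and 5% calf serum. Tebufenozide 100 nM induced expression; compounds titrated; aggregates quantified by cytometry.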
Starred values were filed as active, the others as inactive; ? = inconclusive; / = no result given; & = joins results of further samples; [ ] = remark or other dose. Calls come from the whole dose curve; as a rule, active = well fitted curve in the direction sought with a large enough effect; inconclusive = small, poorly fitted or top-dose-only effect, or another doubt; inactive = no such curve, though single readings can be large; an effect the other way counts as inactive or inconclusive. A portion of the library. The share of hits here may be higher or lower than overall.

SMILES	KinaseGlo FLuc	CBFb-RUNX1 inh	HTT ATP protect	HTT aggregate
COc1ccc(Nc2nc(Nc3ccc(OC)cc3)nc(SC3=NCCS3)n2)cc1	1.8%	-28.0%	-28.9%	13.1%[9.22 µM]
Cc1cc(C(=O)N[C@H](c2ccccc2)[C@@]2(C)C[C@@H]2[C@@H](C)C(=O)Nc2ccc3ccccc3c2)no1	0.0%&0.6%	?	-79.3%[inhibitor]	?
CCCCC[C@H](O)/C=C\[C@H]1[C@H](C/C=C\CCCC(=O)O)[C@@H](O)C[C@H]1O (tested in a mixture with another compound)	2.6%[17.1 µM]	7.1%[21.7 µM]	0.4%[40.3 µM]	9.7%[20.6 µM]
Cc1nnc(SCC2=C(C(=O)O)N3C(=O)[C@@H](NC(=O)Cn4cnnn4)[C@H]3SC2)s1	0.2%	11.4%&19.1%&9.7%	-44.9%[inhibitor]	-16.1%&-8.0%
COC(=O)Nc1sc(C)nc1-c1ccccc1	-1.9%	1.4%	3.5%	-16.7%
Cc1ccc2c(c1)c(Sc1ccccc1)c(CC(=O)O)n2C	3.2%	-14.7%	/	0.6%
Cn1ncc(Br)c1C(=O)O	-0.6%	5.3%	24.1%	-7.4%
O=C(CSc1n[nH]c(-c2ccccc2)n1)c1ccccc1	0.9%	19.6%	12.8%	29.8%
CCN(CC)CCOc1ccc(/C(=C(\Cl)c2ccccc2)c2ccccc2)cc1	-12.7%	-2.2%	-25.4%	/
O=C(O)COCCN1CCN(C(c2ccccc2)c2ccc(Cl)cc2)CC1 (configuration not stated)	-1.5%&-2.0%	8.4%&2.5%	-23.8%&0.1%	22.0%

Assay outcomes (PubChem BioAssay)
